# A1 apoptosis 2: A1 inhibition read as caspase activation; MEF A1-2A-BIM cells, caspase-Glo luminescence, 3 h; percent of clofoctol response, DMSO zero; AID 2465; caspase activation, % (concentration not given with the values); 24,000 tested, under 10 active; in the data active = caspase activation above about 5.9%;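 also: wells of about 30 µL received 50 nL stock; the first replicate is given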
#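 Material: mouse embryonic fibroblasts co-expressing A1 and BIM (A1-2A-BIM), primed for A1 dependence / Quantity: 2500 cells/well / Buffer or medium: RPMI-1640 growth medium with 10% FBS / Doses: 50 nL compound per well, pinned / Schedule: 3 h compound exposure at 37 °C / Signal: Caspase-Glo luminescence (DEVD substrate) / Measure: Caspase-3/7 activation, seen as rise in luminescence signal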
# Active calls of the source: *. An excerpt, so the mix of outcomes need not match the whole.
Structure	A1 apoptosis 2
CC(C)NC(=O)Nc1ccc2c(c1)CC(=O)N([C@@H](C)CO)C[C@@H](C)[C@H](CN(C)C(=O)Nc1cccc3ccccc13)O2	0.3
C[C@H](CO)N1C[C@H](C)[C@@H](CN(C)Cc2ccccc2)Oc2ccc(NC(=O)NC3CCCCC3)cc2CC1=O	0.4
CC(C)NC(=O)N(C)C[C@H]1Oc2ccc(NC(=O)Cc3cn(C)c4ccccc34)cc2C(=O)N([C@H](C)CO)C[C@H]1C	-0.8
C[C@@H]1CCCCO[C@@H](CN(C)Cc2ccncc2)[C@@H](C)CN([C@H](C)CO)C(=O)c2cc(NC(=O)c3ccccc3)ccc2O1	0.1
C[C@@H]1CCCCO[C@@H](CN(C)C(=O)Nc2ccc3c(c2)OCO3)[C@H](C)CN([C@H](C)CO)C(=O)c2cc(NC(=O)Cc3ccccc3)ccc2O1	0.5
C[C@@H]1CN([C@H](C)CO)C(=O)c2cc(NC(=O)C3CCCCC3)ccc2O[C@H]1CN(C)Cc1ccncc1	-0.6
COc1ccc(NC(=O)Nc2ccc3c(c2)CC(=O)N([C@H](C)CO)C[C@@H](C)[C@@H](CN(C)C(=O)Nc2c(C)noc2C)O3)cc1	-0.2
C[C@@H]1CN([C@@H](C)CO)C(=O)c2cccc(NS(=O)(=O)c3ccccc3)c2O[C@@H]1CN(C)C(=O)NC1CCCCC1	-1.1
C[C@@H]1CN([C@@H](C)CO)C(=O)c2cc(NS(=O)(=O)c3cccs3)ccc2O[C@@H](C)CCCCO[C@@H]1CN(C)C(=O)Nc1ccccc1	-0.3
COc1ccc(S(=O)(=O)Nc2ccc3c(c2)C(=O)N([C@@H](C)CO)C[C@@H](C)[C@H](CN(C)C(=O)c2ccccc2)OCCCC[C@H](C)O3)cc1	-0.5
COc1ccc(NC(=O)N(C)C[C@H]2Oc3ccc(NS(=O)(=O)c4cccs4)cc3CC(=O)N([C@H](C)CO)C[C@@H]2C)cc1	0.9
CNC[C@H]1Oc2ccc(NC(=O)NC(C)C)cc2C(=O)N([C@@H](C)CO)C[C@@H]1C	-1.0
Cc1noc(C)c1NC(=O)Nc1ccc2c(c1)CC(=O)N([C@H](C)CO)C[C@@H](C)[C@@H](CN(C)Cc1ccncc1)O2	-1.5
CC(C)NC(=O)N(C)C[C@H]1Oc2c(NS(=O)(=O)c3ccccc3)cccc2C(=O)N([C@@H](C)CO)C[C@H]1C	-0.9
Cc1ccc(S(=O)(=O)N(C)C[C@@H]2Oc3ccc(NS(=O)(=O)c4ccc(F)cc4)cc3C(=O)N([C@@H](C)CO)C[C@@H]2C)cc1	-1.7
C[C@@H]1CN([C@H](C)CO)C(=O)Cc2cc(N(C)C)ccc2O[C@H]1CN(C)Cc1ccc(-c2ccccc2)cc1	0.4
Cc1noc(C)c1NC(=O)Nc1cccc2c1O[C@@H](CN(C)C(=O)Nc1ccc(F)cc1)[C@H](C)CN([C@H](C)CO)C2=O	-1.5
Cc1[nH]cnc1/C=N/NC(=O)c1ccccn1	-1.5
C[C@@H]1CN([C@H](C)CO)C(=O)Cc2cc(NS(=O)(=O)c3ccc(Cl)cc3)ccc2O[C@@H]1CN(C)Cc1ccc(C(=O)Nc2ccccc2N)cc1	-1.0
C[C@@H]1CN([C@H](C)CO)C(=O)c2cccc(NS(=O)(=O)c3ccccc3)c2O[C@H]1CN(C)Cc1ccc(C(F)(F)F)cc1	0.0
CN1CCN(C(=O)C2=C[C@H](c3ccc4c(c3)OCO4)C[C@H](OCCCCO)O2)CC1	0.2
Cc1noc(C)c1S(=O)(=O)Nc1ccc2c(c1)CC(=O)N([C@H](C)CO)C[C@H](C)[C@@H](CN(C)CC1CC1)O2	0.6
C[C@@H]1CN([C@@H](C)CO)C(=O)CCCn2cc(nn2)CO[C@H]1CN(C)C(=O)c1ccc2ccn(C)c2c1	0.8
C[C@H]1CN([C@@H](C)CO)C(=O)c2cccc(NS(=O)(=O)c3ccccc3)c2O[C@H]1CN(C)C(=O)Nc1ccc(F)cc1	1.7
C[C@H]1CN([C@@H](C)CO)C(=O)Cc2cc(NC(=O)Cc3ccccc3)ccc2O[C@@H]1CN(C)C(=O)Nc1ccc(F)cc1	-0.3
C[C@@H]1CCCCO[C@@H](CN(C)S(=O)(=O)c2ccc(F)cc2)[C@H](C)CN([C@@H](C)CO)C(=O)c2cc(NC(=O)Cc3ccccc3)ccc2O1	1.3
C[C@@H]1CN([C@H](C)CO)C(=O)Cc2cc(NS(=O)(=O)c3cccs3)ccc2O[C@H]1CN(C)S(=O)(=O)c1ccc(Cl)cc1	1.2
C[C@H](CO)N1C[C@H](C)[C@@H](CN(C)Cc2ccc(C(=O)O)cc2)Oc2ccc(NC(=O)Cc3ccccc3)cc2CC1=O	-1.0
C[C@H](CO)N1C[C@H](C)[C@H](CN(C)C)Oc2ccc(NS(=O)(=O)c3ccc(Cl)cc3)cc2C1=O	1.7
COc1ccc(NC(=O)Nc2ccc3c(c2)CC(=O)N([C@@H](C)CO)C[C@@H](C)[C@@H](CN(C)S(=O)(=O)c2cccs2)O3)cc1	0.9
Cc1ccc(S(=O)(=O)Nc2ccc3c(c2)CC(=O)N([C@@H](C)CO)C[C@@H](C)[C@@H](CN(C)S(=O)(=O)c2ccc(C)cc2)O3)cc1	1.5
C[C@H](CO)N1C[C@H](C)[C@H](CN(C)Cc2ccc(C(F)(F)F)cc2)Oc2ccc(NC(=O)Cn3cnnn3)cc2C1=O	1.1

# Brought forward from above: seven entries, followed by the next part.
Structure	A1 apoptosis 2
C[C@@H]1CCCCO[C@@H](CN(C)S(=O)(=O)c2ccc(F)cc2)[C@H](C)CN([C@@H](C)CO)C(=O)c2cc(NC(=O)Cc3ccccc3)ccc2O1	1.3
C[C@@H]1CN([C@H](C)CO)C(=O)Cc2cc(NS(=O)(=O)c3cccs3)ccc2O[C@H]1CN(C)S(=O)(=O)c1ccc(Cl)cc1	1.2
C[C@H](CO)N1C[C@H](C)[C@@H](CN(C)Cc2ccc(C(=O)O)cc2)Oc2ccc(NC(=O)Cc3ccccc3)cc2CC1=O	-1.0
C[C@H](CO)N1C[C@H](C)[C@H](CN(C)C)Oc2ccc(NS(=O)(=O)c3ccc(Cl)cc3)cc2C1=O	1.7
COc1ccc(NC(=O)Nc2ccc3c(c2)CC(=O)N([C@@H](C)CO)C[C@@H](C)[C@@H](CN(C)S(=O)(=O)c2cccs2)O3)cc1	0.9
Cc1ccc(S(=O)(=O)Nc2ccc3c(c2)CC(=O)N([C@@H](C)CO)C[C@@H](C)[C@@H](CN(C)S(=O)(=O)c2ccc(C)cc2)O3)cc1	1.5
C[C@H](CO)N1C[C@H](C)[C@H](CN(C)Cc2ccc(C(F)(F)F)cc2)Oc2ccc(NC(=O)Cn3cnnn3)cc2C1=O	1.1
CC(C)NC(=O)Nc1cccc2c1O[C@H](CN(C)S(C)(=O)=O)[C@H](C)CN([C@H](C)CO)C2=O	1.4
Cc1ccc(S(=O)(=O)N(C)C[C@@H]2Oc3ncc(C#Cc4ccc(C(F)(F)F)cc4)cc3C(=O)N([C@H](C)CO)C[C@@H]2C)cc1	1.5
C[C@@H]1CN([C@@H](C)CO)C(=O)c2cccc(NC(=O)Nc3ccccc3)c2O[C@H]1CN(C)Cc1ccc(C(F)(F)F)cc1	-0.8
C[C@@H]1CCCCO[C@@H](CN(C)Cc2ccc3c(c2)OCO3)[C@@H](C)CN([C@@H](C)CO)C(=O)c2cc(NC(=O)c3ccncc3)ccc2O1	-1.4
C[C@H]1CN([C@@H](C)CO)C(=O)Cc2cc(NC(=O)NC3CCCCC3)ccc2O[C@@H]1CN(C)Cc1ccncc1	-0.7
CC(C)NC(=O)Nc1ccc2c(c1)C(=O)N([C@@H](C)CO)C[C@H](C)[C@@H](CN(C)S(=O)(=O)c1cn(C)cn1)OCCCC[C@@H](C)O2	0.2
CNC[C@H]1OCc2cn(nn2)CCCC(=O)N([C@@H](C)CO)C[C@@H]1C	1.0
C[C@H](CO)N1C[C@H](C)[C@@H](CN(C)Cc2ccc(Cl)c(Cl)c2)Oc2c(NS(=O)(=O)c3cccs3)cccc2C1=O	0.0
O=C(C1=C[C@H](C2CCCCC2)C[C@H](OCc2ccc(CO)cc2)O1)N1CCN(Cc2ccc3c(c2)OCO3)CC1	0.7
CC(C)NC(=O)Nc1ccc2c(c1)C(=O)N([C@@H](C)CO)C[C@H](C)[C@@H](CN(C)S(=O)(=O)c1ccc(Cl)cc1)O2	0.8
C[C@H](CO)N1C[C@H](C)[C@@H](CN(C)C(=O)NC2CCCCC2)Oc2ccc(NC(=O)c3ccncc3)cc2CC1=O	0.5
C[C@@H]1CN([C@H](C)CO)C(=O)Cc2cc(NS(=O)(=O)c3cn(C)cn3)ccc2O[C@@H]1CN(C)Cc1ccccc1	0.5
CNC[C@@H]1Oc2c(NC(=O)Nc3c(C)noc3C)cccc2C(=O)N([C@H](C)CO)C[C@H]1C	1.5
C[C@@H]1CN([C@H](C)CO)C(=O)c2cccc(NS(=O)(=O)c3cccs3)c2O[C@@H]1CN(C)S(=O)(=O)c1ccc(Cl)cc1	0.3
Cc1ccc(S(=O)(=O)Nc2ccc3c(c2)C(=O)N([C@H](C)CO)C[C@@H](C)[C@H](CN(C)C)O3)cc1	0.9
COc1ccc(NC(=O)N(C)C[C@H]2OCCCC[C@H](C)Oc3ccc(NS(C)(=O)=O)cc3C(=O)N([C@@H](C)CO)C[C@H]2C)cc1	0.6
Cc1noc(C)c1NC(=O)N(C)C[C@@H]1Oc2c(NC(=O)NC3CCCCC3)cccc2C(=O)N([C@@H](C)CO)C[C@@H]1C	-0.2
C[C@@H]1CN([C@@H](C)CO)C(=O)Cc2cc(NS(=O)(=O)c3cn(C)cn3)ccc2O[C@@H]1CN(C)C(=O)NC1CCCCC1	-0.4
COc1ccc(CN(C)C[C@@H]2OCCCC[C@H](C)Oc3ccc(NS(=O)(=O)c4ccc(OC)cc4)cc3C(=O)N([C@@H](C)CO)C[C@H]2C)cc1	0.8
COCCOC(=O)N1C(=O)[C@@]2(c3cc(C#CC4=CCCCC4)ccc31)[C@H](c1ccccc1OCCO)N1[C@H](c3ccccc3)[C@H](c3ccccc3)OC(=O)[C@H]1[C@@H]2C(N)=O	-0.8
Cc1noc(C)c1S(=O)(=O)Nc1ccc2c(c1)C(=O)N([C@@H](C)CO)C[C@H](C)[C@@H](CN(C)Cc1ccc(C(=O)Nc3ccccc3N)cc1)O2	-1.2
C[C@H]1CCCCO[C@H](CN(C)C(=O)C2CCCCC2)[C@@H](C)CN([C@@H](C)CO)C(=O)c2cc(NS(=O)(=O)c3ccccc3)ccc2O1	0.6
COc1ccc(NC(=O)N(C)C[C@@H]2OCCCC[C@@H](C)Oc3ccc(NC(=O)NC(C)C)cc3C(=O)N([C@@H](C)CO)C[C@H]2C)cc1	1.9
C[C@H]1CN([C@@H](C)CO)C(=O)CCCn2cc(nn2)CO[C@@H]1CN(C)Cc1ccc2c(c1)OCCO2	-0.4
C[C@@H]1CN([C@@H](C)CO)C(=O)c2cc(NC(=O)C3CC3)ccc2O[C@@H]1CN(C)CC1CC1	3.0
C[C@@H]1CCCCO[C@H](CN(C)Cc2ccc(C(=O)O)cc2)[C@@H](C)CN([C@@H](C)CO)C(=O)c2cc(NC(=O)c3ccccc3)ccc2O1	0.7
COc1ccc(S(=O)(=O)N(C)C[C@@H]2Oc3c(NC(=O)Nc4ccccc4)cccc3C(=O)N([C@H](C)CO)C[C@H]2C)cc1	-1.1
CNC[C@H]1Oc2ccc(NS(C)(=O)=O)cc2CC(=O)N([C@H](C)CO)C[C@H]1C	-1.1
COc1ccc(CN(C)C[C@@H]2Oc3ccc(NS(=O)(=O)c4ccc(Cl)cc4)cc3C(=O)N([C@H](C)CO)C[C@H]2C)cc1	-0.3
Cc1noc(C)c1NC(=O)Nc1cccc2c1O[C@H](CN(C)CC1CCCCC1)[C@H](C)CN([C@@H](C)CO)C2=O	1.1
Cc1noc(C)c1NC(=O)N(C)C[C@@H]1OCCCC[C@@H](C)Oc2ccc(NC(=O)Nc3ccccc3)cc2C(=O)N([C@@H](C)CO)C[C@H]1C	1.3
C[C@H](CO)N1C[C@H](C)[C@H](CN(C)C(=O)Nc2ccccc2)OCCCC[C@H](C)Oc2ccc(NC(=O)c3ccncc3)cc2C1=O	1.9
C[C@@H]1CN([C@@H](C)CO)C(=O)c2cccc(NC(=O)C3CCOCC3)c2O[C@@H]1CN(C)S(=O)(=O)c1cn(C)cn1	0.8
C[C@H]1CN([C@@H](C)CO)C(=O)c2cccc(NC(=O)CCCCCC(=O)Nc3ccccc3N)c2O[C@@H]1CN(C)C	0.1
COc1ccc(CN(C)C[C@H]2OCCCC[C@H](C)Oc3ccc(NC(=O)Nc4ccc(C(F)(F)F)cc4)cc3C(=O)N([C@H](C)CO)C[C@@H]2C)cc1	1.0
COc1ccc(S(=O)(=O)N(C)C[C@H]2OCCCC[C@H](C)Oc3ccc(NC(=O)Nc4ccc(F)cc4)cc3C(=O)N([C@@H](C)CO)C[C@H]2C)cc1	0.5
CC(C)NC(=O)N(C)C[C@H]1Oc2ccc(NS(=O)(=O)c3ccccc3)cc2CC(=O)N([C@@H](C)CO)C[C@@H]1C	-0.6
C[C@@H]1CN([C@@H](C)CO)C(=O)Cc2cc(NC(=O)CCN3CCOCC3)ccc2O[C@H]1CN(C)Cc1ccccc1	-0.4
COc1ccc(NC(=O)Nc2ccc3c(c2)C(=O)N([C@@H](C)CO)C[C@H](C)[C@@H](CN(C)S(=O)(=O)c2c(C)noc2C)OCCCC[C@H](C)O3)cc1	0.7
Cc1noc(C)c1NC(=O)N(C)C[C@H]1OCc2cn(nn2)CCCC(=O)N([C@@H](C)CO)C[C@H]1C	0.2

# Bioassay records as filed in PubChem BioAssay.
